TSHR ag: activates the human thyroid stimulating hormone receptor | P16473 | HEK293-CNG-TSHR cells (CNG channel as cAMP sensor), membrane potential dye, cAMP | Potency, µM (doses to about 57.1 µM), for inactives: top-dose activation, most hits filed as activators | 73,000 tested, 0.48% active | AID 926; active = well fitted activation curve of enough size with the parental cells flat; inconclusive = any curve in the parental cells; inactive = parental cells flat and receptor cells flat or falling; also: potency is read from the fitted curve at half-maximal effect; % of control where 0% means no effect; weak receptor curves with flat parental cells got no call and are not listed
Target sequence (P16473 whole entry, looked up): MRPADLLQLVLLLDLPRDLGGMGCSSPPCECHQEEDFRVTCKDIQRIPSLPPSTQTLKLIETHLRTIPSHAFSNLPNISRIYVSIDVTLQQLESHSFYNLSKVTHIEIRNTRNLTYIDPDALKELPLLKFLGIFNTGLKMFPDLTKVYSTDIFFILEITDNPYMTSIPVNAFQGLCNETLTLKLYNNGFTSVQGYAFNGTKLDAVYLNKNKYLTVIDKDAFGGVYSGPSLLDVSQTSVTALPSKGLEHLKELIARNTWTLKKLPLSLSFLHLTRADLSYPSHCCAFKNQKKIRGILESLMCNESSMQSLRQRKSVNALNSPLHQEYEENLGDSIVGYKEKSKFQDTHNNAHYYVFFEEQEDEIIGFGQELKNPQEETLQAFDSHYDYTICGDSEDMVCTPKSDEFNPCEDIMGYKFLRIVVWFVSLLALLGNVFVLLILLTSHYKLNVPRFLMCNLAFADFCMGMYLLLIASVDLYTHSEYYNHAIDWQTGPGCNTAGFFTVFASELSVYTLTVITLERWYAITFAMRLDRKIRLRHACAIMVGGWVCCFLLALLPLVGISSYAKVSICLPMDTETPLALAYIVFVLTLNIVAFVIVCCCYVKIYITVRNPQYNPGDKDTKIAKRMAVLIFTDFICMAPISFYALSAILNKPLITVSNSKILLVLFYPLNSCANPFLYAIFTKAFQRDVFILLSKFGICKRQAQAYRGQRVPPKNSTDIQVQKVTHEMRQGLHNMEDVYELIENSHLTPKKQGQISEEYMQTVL
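HEK 293 cells stably expressing TSHR and a modified CNG channel, with CNG-only parental cells as counterscreen, were preloaded 60 min at room temperature with membrane potential dye containing 100 uM RO 20-1724. Compound exposure was 30 min, and depolarization was read as fluorescence at 590 nm.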
Resorufin autofl: compound fluoresces in the resorufin spectral region; max dye-equivalent concentration, M; 59,000 tested, 0.04% active; Compound fluorescence, resorufin region 547/598 nm, buffer; hits give high values; active = above 10 nM dye equivalent; inconclusive = 1 to 10 nM; inactive = 1 nM or less; a few of its hits are not listed in these tables; also: highest value over a series up to 38 µM
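Dye-equivalent concentration values derive from comparing each well's 547/598 nm fluorescence against resorufin standards included on every plate. Incubation was 15 min at room temperature in 100 mM Tris, pH 8.0.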
AID923: qHTS Assay for Allosteric/Competitive Inhibitors of Caspase-1: Spectroscopic Profiling in AFC Spectral Region; compound fluorescence, AFC spectral region (405/520 nm); almost no hit is shown here; Potency, µM (titrated, usually from 57.5 µM), for the others: at the top dose fluorescence increase, hits mostly activators; 75,000 tested, 1.1% active; AID 923, 2007; active = well fitted activation curve with a large enough effect; inconclusive = small, poorly fitted or top-dose-only effect;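 also: potency is read from the fitted curve at half-maximal effect; 0% is about no effect; scaled to a free AFC standard on each plate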
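Baseline compound fluorescence (AFC region, 405 nm ex/520 nm em) taken from the intercept of kinetic reads with 50 nM caspase-1 and 5 uM Ac-WEHD-AFC; normalized to an on-plate AFC standard curve; compounds titrated up to 57 uM.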
A488 fluor: compound autofluorescence in A488 spectral region. compound autofluorescence, A488 spectral region, dye equivalency; hits give high values. max dye equivalency, M. 59,000 tested, 0.1% active; active = above 10 nM dye equivalent; inconclusive = 1 to 10 nM; inactive = 1 nM or less; about half of its hits are not listed in these tables;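 also: highest value over a series up to 38 µM; compound alone in buffer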
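Compound autofluorescence was read in 100 mM Tris pH 8.0 after 15 min at room temperature, ex 480 nm/em 540 nm. Intensities were converted to A488 dye-equivalent concentration using an on-plate six-point A488 standard curve.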
A647 fluor: A647 region autofluorescence; Compound fluorescence, A647 channel (570/671 nm), Tris buffer; 59,000 tested, under 10 active; max dye-equivalent concentration, M; AID 592; active means above 1 µM dye equivalent; inconclusive means 0.1 to 1 µM; inactive means 0.1 µM or less;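 also: values scaled relative to a standard on each plate; highest value over a series up to 38 µM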
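Tris 100 mM pH 8.0; cpd + A647 stds pin-transferred; 15 min RT; CCD imager, ex 570/em 671. Output = A647-equivalent conc. per cpd conc.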
Starred values were filed as active, the others as inactive; & = joins results of further samples; [ ] = dose if it differs, or a comment.

O=[N+]([O-])c1cccc2ccccc12 was read as TSHR ag -1% and AID923 0.7%.
C=COCCn1c(C)c(C(=O)OCC)c2cc(O)ccc21 was read as TSHR ag -1%, Resorufin autofl inactive, AID923 -1.7%, A488 fluor inactive and A647 fluor 1e-09.
For C[N+]1(C)CCc2cc3c(cc2[C@H]1[C@@H]1OC(=O)c2c1ccc1c2OCO1)OCO3 the results were Resorufin autofl inactive, A488 fluor inactive and A647 fluor 4.3e-08.
Screening OC(c1ccc(Cl)cc1)(c1ccc(Cl)cc1)C(Cl)(Cl)Cl returned TSHR ag inconclusive and AID923 0.1%.
`CN1C(=O)CCS(=O)(=O)[C@H]1c1ccc(Cl)cc1` gave TSHR ag inconclusive, Resorufin autofl inactive, AID923 6.6%, A488 fluor inactive and A647 fluor 1e-09.
COC(=O)[C@H](N)CCCN=C(N)N[N+](=O)[O-] was read as TSHR ag 7%, Resorufin autofl inactive, AID923 -0.3%, A488 fluor inactive and A647 fluor 3.1e-08.
Screening N#CC(C#N)=Cc1ccc([N+](=O)[O-])c(O)c1 returned TSHR ag 6%, Resorufin autofl inactive, AID923 -5.7%, A488 fluor inactive and A647 fluor 2.1e-09.
For CCn1nc(-c2cccs2)nc2c(=O)n(C)c(=O)nc1-2 the results were TSHR ag inconclusive, Resorufin autofl inactive, AID923 5.9%, A488 fluor inactive and A647 fluor 1e-09.
`CC(NC(=O)Oc1ccccc1)C(c1cccs1)N1CCOCC1` (centres undefined) gave TSHR ag inconclusive, Resorufin autofl inactive, AID923 -0.8%, A488 fluor inactive and A647 fluor 1.8e-08.
Screening CN1[C@@H](C[C@@H](O)c2ccccc2)CCC[C@@H]1C[C@H](O)c1ccccc1 returned TSHR ag 10%[25.6 µM], Resorufin autofl inactive, AID923 -0.3%[25.7 µM], A488 fluor inactive and A647 fluor 2.4e-09.
`N=C(N)SCc1ccc(Cl)c2ccccc12` (tested in a mixture with another compound) gave TSHR ag 14%&10%[11.4 µM], Resorufin autofl inactive, AID923 0.5%&-1.4%[11.5 µM], A488 fluor inactive and A647 fluor 1e-09&2.3e-08.
`CCCn1c(=O)c2[nH]c(C3CCCC3)nc2n(CCCOC(=O)c2ccc(S(=O)(=O)F)cc2)c1=O` gave Resorufin autofl inactive, AID923 -3.0%, A488 fluor inactive and A647 fluor 2.1e-09.

Compounds above containing a thiophene ring, fused or not:
For CCn1nc(-c2cccs2)nc2c(=O)n(C)c(=O)nc1-2 the results were TSHR ag inconclusive, Resorufin autofl inactive, AID923 5.9%, A488 fluor inactive and A647 fluor 1e-09.
`CC(NC(=O)Oc1ccccc1)C(c1cccs1)N1CCOCC1` (centres undefined) gave TSHR ag inconclusive, Resorufin autofl inactive, AID923 -0.8%, A488 fluor inactive and A647 fluor 1.8e-08.

(cont.)
For CN1C(=O)N(C)C(=O)C(CCc2ccncc2)(Cc2ccc3c(c2)OCO3)C1=O the results were TSHR ag 19%[11.4 µM] and AID923 -0.6%.
For CC[C@]1(OC(=O)CN)C(=O)OCc2c1cc1n(c2=O)Cc2cc3ccccc3nc2-1 the results were TSHR ag 2%[11.4 µM], Resorufin autofl inactive, AID923 6.3%[11.5 µM], A488 fluor inactive and A647 fluor 1e-09.
Screening NP(N)(=O)NC(=O)c1ccc(F)cc1 returned TSHR ag -2% and AID923 -2.2%.
CC(=O)[C@@]1(O)CC[C@H]2[C@@H]3CC=C4C[C@@H](O)CC[C@]4(C)[C@H]3CC[C@@]21C was read as Resorufin autofl inactive, A488 fluor inactive and A647 fluor 1e-09.
For CC[N+](CC)(CCCNC1=CC(=O)C(NCCC[N+](CC)(CC)Cc2ccccc2)=CC1=O)Cc1ccccc1 the results were TSHR ag 0% and AID923 -0.3%.
c1cncc(CNC2=NCCC2)c1 was read as TSHR ag 1%, Resorufin autofl inactive, AID923 -2.6%, A488 fluor inactive and A647 fluor 1e-08.
`CNC(=O)[C@H]1C[C@@H]1[C@H](NP(=O)(c1ccccc1)c1ccccc1)c1ccccc1` gave TSHR ag inconclusive and AID923 -1.7%.
`ClCc1ccccn1` gave TSHR ag -1% and AID923 0.5%.
`COc1cc(CN2C(=O)NC(=O)C3(Cc4cc(C)ccc4N(C)C3)C2=O)cc(OC)c1` (centres undefined) gave TSHR ag 0%, Resorufin autofl inactive, AID923 0.4%, A488 fluor inactive and A647 fluor 3.1e-09.
For CCOc1ccc(OCC)c(NC(=O)CCn2c(=O)oc3ccccc32)c1 the results were TSHR ag inconclusive, Resorufin autofl inactive, AID923 0.5%, A488 fluor inactive and A647 fluor 1.3e-08.
CN(C)P(=NC(=S)c1cccn1C)(N(C)C)N(C)C was read as TSHR ag inconclusive, Resorufin autofl inactive, AID923 0.5%, A488 fluor inactive and A647 fluor 1e-09.
Screening COC1=CC(=O)O[C@@H](/C=C/c2ccc3c(c2)OCO3)C1 returned TSHR ag inconclusive and AID923 -1.4%.
`O=C(COc1ccccc1)N1CCN(CC2CC3C=CC2C3)CC1` (centres undefined) gave TSHR ag 17%, Resorufin autofl inactive, AID923 -2.1%, A488 fluor inactive and A647 fluor 1e-09.
COc1ccc(C(=O)CC2C(=O)N(C)C(=O)N(C)C2=O)cc1 was read as Resorufin autofl inactive, A488 fluor inactive and A647 fluor 5.8e-08.
Screening CC(=O)N1CC[N+](C)(C)CC1 returned TSHR ag 1% and AID923 -1.0%.
Screening CN1C(=O)CN=C(c2ccc(Cl)cc2)c2cc(Cl)ccc21 returned Resorufin autofl inactive, A488 fluor inactive and A647 fluor 1.2e-08.
`Cc1ccc(CC2C(=O)N(C)C(=O)N(C)C2=O)s1` gave TSHR ag 2%[11.4 µM] and AID923 0.3%.
`CCN1C[C@@]2(COC)[C@H]3[C@@H](OC)[C@H]4C1[C@@]3([C@H](OC)C[C@@H]2O)[C@H]1C[C@@]2(O)[C@@H](OC(=O)c3ccccc3)[C@@H]1[C@@]4(OC(C)=O)[C@H](O)[C@@H]2OC` gave TSHR ag 1%[25.6 µM], Resorufin autofl inactive, AID923 1.5%[25.7 µM], A488 fluor inactive and A647 fluor 1e-08.
N#CCCCC[N+]12CN3CN(CN(C3)C1)C2 was read as TSHR ag 9%[11.4 µM], Resorufin autofl inactive, AID923 -0.3%[11.5 µM], A488 fluor inactive and A647 fluor 1e-09.
Screening COc1ccc(N2CCN(CCCN)CC2)cc1 returned TSHR ag -5%, Resorufin autofl inactive, AID923 -1.0%, A488 fluor inactive and A647 fluor 1e-09.
Screening O=C(Nc1ccc([As](=O)(O)O)cc1)Nc1cccc(Cl)c1Cl returned TSHR ag 6%[11.4 µM], Resorufin autofl inactive, AID923 -0.2%[11.5 µM], A488 fluor inactive and A647 fluor 1.3e-08.
C1CC2OC2CC1C1CO1 (centres undefined) was read as TSHR ag -3% and AID923 2.4%.
N[C@H]1C[C@H]1c1ccccc1 was read as TSHR ag -3%[25.6 µM], Resorufin autofl inactive, AID923 1.2%[25.7 µM], A488 fluor inactive and A647 fluor 4.2e-09.
For O=C1CC(N2CCC(n3c(=O)[nH]c4ccccc43)CC2)C(=O)N1c1ccc(F)cc1 (centres undefined) the results were TSHR ag -15%, Resorufin autofl inactive, AID923 -0.9%, A488 fluor inactive and A647 fluor 1e-09.
C=CCn1c(O)c(C(=O)CCCCCC)c(=O)[nH]c1=O was read as TSHR ag 9%, Resorufin autofl inactive, AID923 -0.3%, A488 fluor inactive and A647 fluor 1.7e-08.
Screening O=C(O)[C@H](Cc1cnc[nH]1)N1C(=O)c2ccccc2C1=O returned TSHR ag 6%[11.4 µM], Resorufin autofl inactive, AID923 1.2%[11.5 µM], A488 fluor inactive and A647 fluor 1e-09.
CCCCCCCCCCCCCC(=O)O[C@H]1[C@@H](C)[C@@]2(O)[C@@H](C=C(CO)C[C@]3(O)C(=O)C(C)=C[C@@H]23)C2C(C)(C)[C@]21OC(C)=O (some centres undefined) was read as TSHR ag inconclusive, Resorufin autofl inactive, AID923 -5.6%, A488 fluor inactive and A647 fluor 1e-09.
Screening O=[N+]([O-])c1ccc(O[C@H]2O[C@@H](CO)[C@@H](O)[C@@H](O)[C@@H]2F)c([N+](=O)[O-])c1 returned TSHR ag 13%, Resorufin autofl inactive, AID923 -1.2%, A488 fluor inactive and A647 fluor 4.1e-09.
Screening CCOC(=O)C(C)Oc1cc(C)cc2oc(=O)c3c(c12)CCCC3 (centres undefined) returned TSHR ag inconclusive, Resorufin autofl inactive, AID923 -1.6%, A488 fluor inactive and A647 fluor 1.8e-08.
O=C(O)c1cc(N=Nc2ccc([As](=O)(O)O)cc2)ccc1O was read as TSHR ag -58%[inhibitor][11.4 µM], Resorufin autofl inactive, AID923 0.1%[11.5 µM], A488 fluor inactive and A647 fluor 3.9e-08.
`Clc1ccc(C(c2ccc(Cl)cc2)C(Cl)(Cl)Cl)cc1` gave TSHR ag inconclusive and AID923 -0.9%.
For C=C(C)CSc1nnc([C@@H](N)Cc2c[nH]c3ccccc23)o1 the results were TSHR ag 7%, Resorufin autofl inactive, AID923 1.5%, A488 fluor inactive and A647 fluor 1.1e-08.
`C[C@@H](CO)NC(=O)[C@H]1C=C2c3cccc4[nH]cc(c34)C[C@H]2N(C)C1` gave TSHR ag -2%, Resorufin autofl inactive, A488 fluor inactive and A647 fluor 1e-09.
Cl/C=C/Cl was read as TSHR ag -10% and AID923 -1.0%.
`c1ccc2c(c1)CNc1ccccc1O2` gave TSHR ag -8%, Resorufin autofl inactive, AID923 -0.4%, A488 fluor inactive and A647 fluor 3.7e-08.
`O=C(Nc1ccccc1)N1CCCC2(CCN(C(=O)Oc3ccccc3)CC2)C1` gave TSHR ag 16%, Resorufin autofl inactive, AID923 1.0%, A488 fluor inactive and A647 fluor 1e-09.
For CCCCCCC(N)CC(=O)O (centres undefined) the results were TSHR ag 17% and AID923 -0.8%.
For O=C(N1CCOCC1)C1(c2ccccc2)CCNCC1 the results were TSHR ag 6%[11.4 µM], Resorufin autofl inactive, AID923 0.0%[11.5 µM], A488 fluor inactive and A647 fluor 5.1e-09.
`CC(C)NC(=O)N1CCC2(CCNCC2)CC1` gave TSHR ag 3%, Resorufin autofl inactive, AID923 1.2%, A488 fluor inactive and A647 fluor 1e-09.
CN(C)P(=O)(C(Cl)=C(N1CCCCC1)N1CCCCC1)N(C)C was read as TSHR ag inconclusive, Resorufin autofl inactive, AID923 -0.8%, A488 fluor inactive and A647 fluor 1e-09.
`CCOC(=O)c1ccc(N2C(=O)CC(N3CCC(C#N)(c4ccccc4)CC3)C2=O)cc1` (centres undefined) gave TSHR ag -3%, Resorufin autofl inactive, AID923 0.5%, A488 fluor inactive and A647 fluor 3.1e-08.
Screening CCN(CC)CCOC(=O)c1cc2cc(COC)ccc2o1 returned TSHR ag 4%[11.4 µM], Resorufin autofl inactive, AID923 0.1%, A488 fluor inactive and A647 fluor 1e-09.
`COC(=O)[C@@H]1c2cc3c(c(O)c2[C@@H](O)C[C@]1(C)O)C(=O)c1c(O)cc2c(c1C3=O)O[C@H]1O[C@@]2(C)[C@@H](O)[C@H](N(C)C)[C@H]1O` gave TSHR ag -5%[11.4 µM], Resorufin autofl inactive, AID923 0.7%[11.5 µM], A488 fluor inactive and A647 fluor 1.8e-08.
For CCCCCn1c(=O)c(C(=O)NCc2ccccn2)c(O)c2ccccc21 the results were TSHR ag 5% and AID923 2.0%.
O=c1[nH]c(=O)n(Cc2ccc(F)cc2)c(O)c1C=NCC1CCCO1 (centres undefined) was read as TSHR ag -4%, Resorufin autofl inactive, AID923 0.4%, A488 fluor inactive and A647 fluor 1e-09.
For C/C(O)=C(/C#N)C(=O)Nc1cc(Br)ccc1Br the results were TSHR ag inconclusive, Resorufin autofl inactive, AID923 -2.5%, A488 fluor inactive and A647 fluor 2.5e-08.
C[C@]12N[C@H](Cc3ccccc31)c1ccccc12 was read as TSHR ag inconclusive, Resorufin autofl inactive, AID923 -0.7%&-3.7%, A488 fluor inactive and A647 fluor 8.8e-09&1.3e-09.

Screening results (PubChem)

These rows are one share of the data, so the mix of outcomes need not match the whole.
